Sa helicase inh: blocks Staphylococcus aureus DNA helicase | purified S. aureus helicase, fluorescence unwinding assay; about half of the hits fall short of the stated cut | inhibition, %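 (tested at about 80 µM)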 | 0.05% of 120,000 active | AID 485395;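 active means both duplicates at 50% or more, or one of them with a favoured structure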;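 further: 0% = mean of negative control wells and 100% = mean of positive control wells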
MgrA DNA FP: S. aureus MgrA-DNA binding modulation | 0.13% of 84,000 active | fluorescence polarization | AID 602314 | inhibition, %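 (about 10 µg/mL by stock and volumes)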;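 active means above 50% in either of two replicates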;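 further: 0% = protein plus DNA without compound and 100% = DNA alone without protein; higher means less MgrA bound to DNA so lower polarization; one replicate is shown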
* marks the source's active call; other numbers are inactive results; / = not tested or not shown; & = joins results of further samples.

SMILES	Sa helicase inh	MgrA DNA FP
O=C(Cc1coc(-c2ccc(F)cc2)n1)Nc1ccccc1	15	0.9
CC(=O)Oc1ccccc1C(=O)N1C(C)CCCC1C (centres undefined)	14	-4.0
COC(=O)CSc1nc(-c2ccccc2)c2cc(Cl)ccc2n1	10	/
S=c1c(Cl)c(Cl)cnn1Cc1ccccc1	-5	17
CC(c1ccccc1)n1c(CCCNC=O)nc2ccccc21 (centres undefined)	-4	-0.9
C=CCNc1oc(-c2ccccc2)nc1C#N	-6	1.5
O=c1/c(=C\c2cccs2)sc2nc3ccccc3n12	20	/
Cn1c(C(C#N)C(=O)Cc2cccc3ccccc23)nc2ccccc21 (centres undefined)	5	-1.4
O=C(/C=C/c1ccccc1)NC(=O)c1ccccc1O	0	/
COC(=O)c1cccc(NC(=O)COC(=O)c2ccco2)c1	18	-1.0

More entries follow.
SMILES	Sa helicase inh	MgrA DNA FP
COc1ccccc1OC(=O)C1CC(=O)N(c2ccc(Cl)cc2)C1 (centres undefined)	9	2.0
COc1ccc(CN2C(=O)Cc3c2nc(N)c2c(N)nc(N4CCOCC4)c(C#N)c32)cc1	-22	/
Cc1ccc(NC(=O)CSc2n[nH]c(=O)n2CC2CCCO2)cc1C (centres undefined)	-3	/
CCOC(=O)c1c(NC(=O)Cn2nnc3ccccc32)sc2c1CCC(C)C2 (centres undefined)	1	0.9
N#Cc1c(N)n(-c2ccccc2)c2nc3ccccc3nc12	5	1.1
Cc1ccc(OCCn2c(C(O)c3ccccc3)nc3ccccc32)cc1 (centres undefined)	10	0.4
O=C(O)C1CSC2c3ccccc3C(=O)N12 (centres undefined)	1	-2.5
Cc1ccsc1C(=O)Oc1cccc(F)c1	24	/
CC(C)n1c(SCC(=O)Nc2ccccc2Cl)nc2cc(Cl)ccc21	/	0.1
CSc1nsc(SCC#N)n1	-5	0.1

Going on with the list.
SMILES	Sa helicase inh	MgrA DNA FP
Cc1ccc(Nc2nc(=O)[nH]nc2C)cc1Cl	13	/
NC(=O)c1ccccc1OCc1cn2cc(Cl)ccc2n1	7	/
O=C(NCc1ccccc1)N1CCC(CN2CCCCC2)CC1	4	1.5
COCC(=O)Nc1sccc1C(=O)OC	/	-0.8
O=C(O)CC1(C(F)(F)F)OCCO1	16	/
CCN(CC)C(=S)SC1CC(=O)N(c2ccc(S(=O)(=O)NC(C)=O)cc2)C1=O (centres undefined)	15	-1.0
CCCn1cnc2sc(C(=O)O)c(C)c2c1=O	-5	-7.5
CC(=O)N1C(=S)NC(=O)C1c1ccccc1 (centres undefined)	/	0.3
Cc1cc(NC(=O)c2ccco2)no1	12	/
CN(C)CCCn1c(N)c2c3c(sc2nc1=O)COC(C)(C)C3	7	1.3

New compounds follow:
SMILES	Sa helicase inh	MgrA DNA FP
N#CNC(=Nc1cccc(Cl)c1)Oc1ccccc1	-9	/
O=C1CCC(C2CCC(=O)CC2)CC1	5	/
CC1=[N+]([O-])C(C)(C)C(c2ccc(C)o2)=[N+]1[O-]	14	2.5
CCOC(=O)NC1c2ccccc2Sc2ccc(Cl)cc21 (centres undefined)	6	-1.9
O=C(O)CSCC(=O)Nc1ccccn1	10	/
CCc1ccc(N(C(C)=O)c2nc(CSc3nnc4n3CCCCC4)cs2)cc1	-1	/
N=c1c2c(-c3ccccc3)c(-c3ccccc3)oc2ncn1CCN1CCOCC1	14	-0.2
CCOC(=O)Nc1ccc(F)cc1F	/	2.6
COc1cc(S(=O)(=O)N2CCCCC2)ccc1N=Cc1c(C)[nH]n(-c2ccccc2)c1=O	-7	2.9
CCOC(=O)C1(CC(=O)c2ccc(F)cc2)C(=O)Oc2ccccc2C1c1ccccc1 (centres undefined)	7	/

Some of the entries so far, with two lines to a compound:
Each structure is followed by: Sa helicase inh	MgrA DNA FP
N#CNC(=Nc1cccc(Cl)c1)Oc1ccccc1
→ -9	/
O=C(O)CSCC(=O)Nc1ccccn1
→ 10	/
O=C1CCC(C2CCC(=O)CC2)CC1
→ 5	/

Next results.
SMILES	Sa helicase inh	MgrA DNA FP
O=C(NCCN1CCN(c2nccc(C(F)(F)F)n2)CC1)c1ccc(Cl)cc1	/	5.2
CC1C=CC(C)C(C(=O)O)C1C(=O)O (centres undefined)	5	20
O=C(Nc1ccc2c(c1)OCCCO2)c1cn(-c2ccccc2)nc1-c1cccs1	18	/
COc1cc2c(cc1OC)CN(C(=S)NCCCN1CCOCC1)CC2	9	/
O=C(O)c1cccc(Oc2ncccn2)c1	5	-4.2
O=S(=O)(c1cccc(C(F)(F)F)c1)N1CCC(N2CCCCC2)CC1	-19	/
C=CCn1c(=NC(=O)/C=C/c2ccccc2)sc2cc(NC(C)=O)ccc21	13	/
COc1ccc(CC/C(C)=C2/C(=O)Nc3ccccc32)cc1	/	0.8
Nc1nc(-c2ccc(Br)cc2)cc(C(F)(F)F)n1	/	-1.3
Cc1onc(-c2ccccc2)c1CNC(=O)c1c(-c2ccc(F)cc2)noc1C	/	-0.2

Other structures follow:
SMILES	Sa helicase inh	MgrA DNA FP
CCCCC1CCC(C(=O)Nc2nonc2C)CC1 (centres undefined)	-24	/
CC(=O)N1CCN(C(=O)CSc2nc(-c3ccccc3)c(-c3ccccc3)[nH]2)CC1	6	/
CCOC(=O)C1=C(C)N=c2s/c(=C\c3c(C)[nH]c4ccccc34)c(=O)n2C1c1ccc(OC)cc1OC (centres undefined)	/	-1.0
Cc1ccc(C)c(COc2ccc(C)nc2NC(=S)NCc2ccccc2)c1	/	-0.3
O=C(CS[n+]1ccccc1)c1ccc(Br)cc1	6	/
CC(C)CNC(=O)c1ccc2c(c1)[nH]c(=O)n2C(C)C	9	-3.3
Cc1cc(C)[n+]2oc(C)cc2n1	-27	/
CC(CC(=O)Nc1ccc(Cl)cc1)NCc1nnc2ccccn12 (centres undefined)	5	/
Cc1noc(C)c1S(=O)(=O)N1CCCN(C/C(O)=C(\C#N)c2nc3ccccc3[nH]2)CC1	-9	/
CCN(CC)c1ccc(N2C(=O)/C(=C/c3ccccc3)SC2=S)cc1	7	/

Remaining list, next part.
SMILES	Sa helicase inh	MgrA DNA FP
Cc1n[nH]c(C)c1Cc1c(F)cccc1Cl	/	3.7
Cc1ccccc1NC(=O)C(C)Sc1nc2ncccc2[nH]1 (centres undefined)	19	/
CCCNC(=O)N1CCN(c2ccc(Cl)c(Cl)c2)CC1	2	1.0
Cc1ccc(S(=O)(=O)CCc2nc(S(=O)(=O)c3ccc(C)cc3)c(N(C)C)o2)cc1	17	/
CNC(=S)NC1CCS(=O)(=O)C1 (centres undefined)	11	0.7
O=C(CSc1ccc(Cl)cc1)N1CCc2c([nH]c3ccccc23)C1C(F)(F)F (centres undefined)	/	0.0
Cc1ccc(S(=O)(=O)N2c3ccccc3S(=O)c3ccccc32)cc1	2	/
CCN(CC)c1nc(C)nc2sc(C(=O)N3CCCCCC3)c(C)c12	12	1.6
COc1ccc(N=Cc2ccc(Br)s2)cc1	-7	0.5
CCCCc1c2c(nn1-c1ccccc1F)CC(c1ccccc1)CC2=O (centres undefined)	2	2.8

One compound at a time (already shown). Screens in order: Sa helicase inh | MgrA DNA FP
O=C(CSc1ccc(Cl)cc1)N1CCc2c([nH]c3ccccc23)C1C(F)(F)F (centres undefined) is entered as / | 0.0
CCOC(=O)C1(CC(=O)c2ccc(F)cc2)C(=O)Oc2ccccc2C1c1ccccc1 (centres undefined) is entered as 7 | /
CC(CC(=O)Nc1ccc(Cl)cc1)NCc1nnc2ccccn12 (centres undefined) is entered as 5 | /
CC1=[N+]([O-])C(C)(C)C(c2ccc(C)o2)=[N+]1[O-] is entered as 14 | 2.5
CC(=O)N1C(=S)NC(=O)C1c1ccccc1 (centres undefined) is entered as / | 0.3

Remaining list, next part.
SMILES	Sa helicase inh	MgrA DNA FP
CCC(C)NC(=O)c1ccc(Sc2ccc(Cl)cc2)c(NC(C)=O)c1 (centres undefined)	5	1.9
CC(C)N(C(=O)c1ccc(C(=O)N2CCCCC2)cc1)C(C)C	/	0.9
CC(C)n1c(O)c(N=NC(=S)NCCN2CCOCC2)c2ccccc21	-9	/
O=S(=O)(c1ccccc1)n1nc(-c2ccccc2)nc1NCc1cccs1	-4	1.1
CCOC(=O)Cn1c(-c2c(Cl)cccc2Cl)noc1=O	/	-0.2
CCC1Sc2ccccc2NC1=O (centres undefined)	9	-1.6
CCN(CC)S(=O)(=O)c1cccc(-c2nnc(SCc3nc4cc(C(=O)O)ccc4c(=O)[nH]3)o2)c1	-6	/
N#CCCN(C(=O)Cc1noc2ccccc12)c1ccccc1	-2	/
O=C(O)CNC(=O)CSc1ccccn1	/	0.5
O=C(CCCSc1nc2ccccc2s1)Nc1nccs1	-9	/

Following part
SMILES	Sa helicase inh	MgrA DNA FP
NC(=O)C1CCN(C2CC(=O)N(Cc3ccc(F)cc3)C2=O)CC1 (centres undefined)	-2	-0.8
COc1ccc(NC(=O)CC2(Cc3ccccc3)CCOC(C)(C)C2)cc1 (centres undefined)	-3	-3.2
O=C1CS/C(=N/C(=O)NC2(C(F)(F)F)Oc3ccc(Cl)cc3O2)N1 (centres undefined)	6	/
N/C(CS(=O)(=O)c1ccc(Cl)cc1)=N\O	/	-3.1
CSC1=NCCN1C(=O)c1ccccc1	17	0.4
Cc1cccc2nc(CSc3nnc(CN4CCCC4)n3Cc3ccccc3)cc(=O)n12	-16	/
CCCN1C(=O)c2cc(C(=O)Nc3ccc(OC)c(OC)c3)ccc2C1Nc1ccc(OC)c(OC)c1 (centres undefined)	-14	/
c1ccc(Sc2cnc3ccccc3n2)cc1	/	0.3
CSCC[C@@H]1NC(=O)[C@@H]2CCCN2C1=O	0	-2.5
Cc1cc(-c2ccc(NC(=O)C3CC3)c(C)c2)ccc1NC(=O)C1CC1	14	-1.9

Following part
SMILES	Sa helicase inh	MgrA DNA FP
NNC(=O)CSCc1nc(-c2ccccc2)cs1	16	/
N/C(=N\S(=O)(=O)c1ccc(Cl)cc1)c1ccccc1	11	3.0
CCc1cccc(NC(=O)CCn2c(=O)c3cccn3c3ccccc32)c1	19	/
CC(C)CC1C(=O)N2CCC[C@H]2C2(O)O[C@](NC(=O)C3C=C4c5cccc6[nH]c(Br)c(c56)C[C@H]4N(C)C3)(C(C)C)C(=O)N12 (some centres undefined)	/	0.4
Cc1cc(-n2c(C)cc(C(=O)CSc3nnc(COc4ccccc4Cl)o3)c2C)no1	11	/
NC(=O)CC1NC(=O)c2ccccc21 (centres undefined)	-1	2.2
O=C(NC1CCCCC1)c1nc(-c2cccc(C(F)(F)F)c2)no1	7	-2.1
Cc1cc(/C=C(\C#N)C(=O)N2CCn3c2nc2ccccc23)c(C)n1-c1cccc(C(F)(F)F)c1	9	/
COc1cc(C(=O)c2cc(Cl)ccc2N)cc(OC)c1OC	6	1.5
O=C(OCCCCN1C(=O)c2ccccc2C1=O)c1ccc(-n2cnnn2)cc1	-11	/

Continued:
SMILES	Sa helicase inh	MgrA DNA FP
N#C/C(=C\C1CC2C=CC1C2)c1nc2ccccc2[nH]1 (centres undefined)	-4	-0.3
CN1C(C)(C)CCCC1(C)C	/	-0.3&0.8
Cc1ccccc1-n1c(=O)c(C#N)cc2c(=O)n3ccccc3nc21	-29	/
O=C(NCCSCc1ccco1)Nc1cccc(Cl)c1	/	-3.9
CCOC(=O)N1CCC(c2nc3ccccc3[nH]2)CC1	14	-1.2
CCCS(=O)(=O)Nc1cc2oc3ccccc3c2cc1OC	15	/
CC(C)(C)c1ccccc1OCC(=O)Nc1cccc2ccccc12	2	-0.2
COc1cc2c(cc1OC)CN(C(=O)c1ccc(Cl)nc1)CC2	0	/
CN(Cc1ccccc1)C(=O)COC(=O)c1c2c(nc3ccccc13)CCC2	-9	2.2
O=C(NCCCn1ccnc1)c1ccccc1NS(=O)(=O)c1ccc(Cl)cc1	/	4.7

(more compounds)
SMILES	Sa helicase inh	MgrA DNA FP
CC(OC(=O)c1cc(S(=O)(=O)N2CCOCC2)ccc1F)C(N)=O (centres undefined)	3	/
Cc1ccc(SCC(=O)Nc2cccc3nsnc23)c(C)c1	4	/
CCN(CC)C(=O)c1cccc(NC(=O)c2cc(-c3ccco3)nc3ccccc23)c1	-7	/
COc1cc2c(cc1NC(=O)COC(=O)C1CC(=O)N(Cc3ccco3)C1)oc1ccccc12 (centres undefined)	34	/
CC(C)(C)OC(=O)NCc1n[nH]c(=S)n1C1CC1	/	0.8
Cc1cc(SCC#N)c(C)cc1Cl	/	3.8
O=C(NCC1(c2ccccc2)CCCC1)c1noc2c1COc1ccccc1-2	9	0.7
COc1cc(C2CC(C(F)(F)F)n3ncc(C(=O)Nc4cc(Oc5ccc(F)cc5)cc([N+](=O)[O-])c4)c3N2)cc(OC)c1OC (centres undefined)	/	2.4
CCCSc1nc2c([nH]c3ccccc32)c(=O)n1-c1ccccc1	-5	/
COc1ccc(NC(=O)N2CCN(C3CCCCC3)CC2)c(OC)c1	18	7.7

(cont.)
SMILES	Sa helicase inh	MgrA DNA FP
CC(=O)N1N=C(c2ccco2)CC1c1cc2cccc(C)c2nc1Cl (centres undefined)	4	/
O=C(CC1SC(=Nc2cccc(F)c2)NC1=O)Nc1cc(Cl)ccc1Cl (centres undefined)	/	2.4
Cn1c(=O)oc2cc(S(=O)(=O)NCCC(=O)Nc3cccc(F)c3)ccc21	8	-1.2
NC(=O)Cn1c2[n+](c3ccccc31)CC(O)CS2 (centres undefined)	5	-0.3
CCN(CC)C(=O)c1ccc[n+](CC(N)=O)c1	1	-0.6
Cc1ccc(C(C#N)c2ccc(Cl)nn2)cc1 (centres undefined)	/	1.8
CCN(CC)CCNc1nc2c(c(=O)n(C)c(=O)n2C)n1C(C)c1ccccc1 (centres undefined)	3	2.9
COc1ccc(SCC(=O)N(C2CCCCC2)C2CCS(=O)(=O)C2)cc1 (centres undefined)	-3	/
CC(C)(C)S(=O)(=O)c1ccc(S(=O)(=O)C(C)(C)C)s1	5	0.1
CCc1cccc(NC(=O)NC(=O)Cn2nnc(C(=O)OC)c2C(=O)OC)c1	3	-4.0

The list is partial, so the mix of outcomes need not match the whole.
